# Source: PubChem (National Center for Advancing Translational Sciences (NCATS))
# HPGD block: qHTS Assay for Inhibitors of HPGD (15-Hydroxyprostaglandin Dehydrogenase) | 15-hydroxyprostaglandin dehydrogenase [NAD(+)] (Homo sapiens), P15428 | purified HPGD, NADH fluorescence kinetic, PGE2 substrate | Potency, µM, for inactives: at the highest dose activity change, negative = inhibition, hits mostly inhibitors | hit rate 4.3% among 150,000 | AID 894, 2007; active = well fitted inhibition curve with a large enough effect (not every such curve was filed as active); inconclusive = small, poorly fitted or top-dose-only effect, or another doubt; inactive = no such curve, though single readings can be large or run the other way;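 further: top concentration of the series not given in the record; plate controls included wells without enzyme; inactives centre near -10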
# Target sequence (P15428 whole entry, looked up): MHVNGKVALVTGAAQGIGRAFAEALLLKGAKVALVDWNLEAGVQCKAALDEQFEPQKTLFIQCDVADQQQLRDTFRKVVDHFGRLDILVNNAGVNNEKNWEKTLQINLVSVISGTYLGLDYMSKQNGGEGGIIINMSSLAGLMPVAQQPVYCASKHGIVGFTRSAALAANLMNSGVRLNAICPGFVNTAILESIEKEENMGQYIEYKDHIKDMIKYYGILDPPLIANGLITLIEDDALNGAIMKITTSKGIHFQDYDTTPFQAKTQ
#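 NADH formation kinetics: reaction with 30 uM PGE2 and 1 mM NAD+ (final), 20 nM enzyme, Tris-HCl pH 8 with Tween 20, after 15 min compound preincubation at room temperature. Fluorescence change, last versus first of five reads.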
# Active calls of the source: *; u = inconclusive. On the % scale 0 is the no-effect control and ±100 the full control effect; potency means the concentration at half of the fitted maximal effect.
HPGD block	structure
-5.0%	CC(C)CC(c1nnnn1C(C)C)N1CCN(c2ccccc2)CC1 (stereo not given)
-11.9%	Cc1nc2ccccn2c1C(=O)N/N=C/c1cc(C)n(-c2ccc(Br)cc2)c1C
-11.9%	O=C(C1CCN(S(=O)(=O)N2CCOCC2)CC1)N1CCN(Cc2ccccc2)CC1
-8.4%	CCOc1ccc(C(=O)Nc2cccc(-c3nc4ccccc4[nH]3)c2C)cc1[N+](=O)[O-]
-2.2%	Cc1onc(-c2c(F)cccc2Cl)c1C(=O)NCCCN1CCOCC1
-13.7%	O=C(COC(=O)CCc1ccccc1)Nc1ncc(Cl)cc1Cl
-4.8%	Nc1c2c(nc3ccccc13)CCC2
-2.6%	CCCCN(C)C(=O)C(Cc1ccccc1)NS(=O)(=O)c1ccc2c(c1)c(=O)n(C)c(=O)n2C (stereo not given)
-19.6%	Cc1sc2ncn(CC(=O)NCCCC(=O)N3CCN(c4ccccn4)CC3)c(=O)c2c1C
-6.2%	CCOC(=O)c1nnsc1NC(C)=O
14.1µM*	CCOC(=O)CC(=O)CSc1ncnc2c1oc1ccccc12
-18.0%	CC(=O)Nc1cccc(-c2nnc3n2CC(C)S3)c1 (stereo not given)

# Further compounds
HPGD block	structure
0.5%	O=C(CC(c1ccccc1)c1ccccc1)Nc1ncn[nH]1
u	OC(c1cccc(OCc2ccccc2)c1)c1nnc(-c2ccccc2)o1 (stereo not given)
0.7%	CCn1cc(C(=O)N2CCCC2)c(=O)c2cc(S(=O)(=O)N3CCOCC3)ccc21
u	COc1cc2c(=O)n(Cc3ccccc3)c(=O)n(CC(=O)NCc3ccco3)c2cc1OC
-17.6%	Cc1ccc(C(=O)c2sc3c(c2N)c(=O)[nH]c(=O)n3CCc2ccccc2)cc1
-29.6%	CC(C)c1ccccc1-n1c(SCC(=O)N2CCc3ccccc3C2)nc2ccccc2c1=O
11.2µM*	CC(C)COC(=S)Nc1ccccc1
-20.5%	Cc1ccccc1NC(=O)Nc1nc2ccc(S(C)(=O)=O)cc2s1
-11.1%	CCCN(CC(=O)Nc1ccccc1C)C(=O)/C=C/c1cccs1
-4.4%	COc1cc(NC(=O)c2ccc(Cl)cc2)c(OC)cc1Cl
u	CC(C)c1cc(C(=O)Nc2sc3c(c2C#N)CCC3)no1
5.5%	O=C1CC(Nc2ccc(N3CCOCC3)cc2)C(=O)N1Cc1ccccc1 (stereo not given)

# More records:
HPGD block	structure
2.2%	CCN(C(N)=S)c1ccccc1
-26.9%	CN1CCN(c2nc(-c3ccccc3)c3cc(Cl)ccc3n2)CC1
25.2%	CCC(=O)c1cc2c(C)cc(=O)oc2c(C)c1OC(C)=O
u	O=C(COc1ccc2c(-c3ccccc3)cc(=O)oc2c1)NCc1cccs1
-19.1%	CC(C)Cn1c(-c2ccc(Br)o2)n[nH]c1=S
-6.0%	COc1ccc(OC)c(C(c2nnnn2Cc2ccccc2)N2CCC(C(N)=O)CC2)c1 (stereo not given)
-9.1%	CNC(=O)COc1ccc(C=O)cc1OC
-3.2%	CCn1c(CCNC(=O)c2ccccc2Cl)n[nH]c1=S
-18.6%	Cc1ccc(SCC(=O)NC(=O)NCc2ccco2)c(C)c1
-8.8%	Cc1cc(C)cc(N(CC(=O)N2CCN(Cc3ccccc3)CC2)S(=O)(=O)c2c(C)noc2C)c1
-3.4%	COc1ccc(CN2CC(C(=O)NCCc3ccccc3)CC2=O)cc1 (stereo not given)
-24.0%	CCOC(=O)N1CCN(c2c(N3CCc4ccccc43)c(=O)c2=O)CC1

# Remaining list, next part:
HPGD block	structure
-8.3%	O=C(CCC(=O)Nc1ccccc1)NCCO
-19.5%	CCCCCCCc1nc2c(=O)n(C)c3ccccc3c2o1
-19.1%	CCCCC(=O)Nc1ccc(Br)cc1C(=O)O
-9.0%	COc1cccc(-n2nnnc2SCC(=O)Nc2ccc3c(c2)OCCO3)c1
14.1µM*	COCCNC(=O)c1ccc(CN2CCc3ccccc3C2)cc1
-27.1%	C/C(=N\NC(=O)c1cc2ccccc2cc1O)c1ccc2c(c1)OCO2
-14.2%	COc1cc(NC(=O)/C=C/c2ccccc2[N+](=O)[O-])cc(OC)c1
-10.7%	CC1CCN(c2nc(-c3ccc(F)cc3)cc(C(F)(F)F)n2)CC1
-13.9%	COc1ccc(C(=O)N/N=C(/C)c2cccc(NC(=O)C(F)(F)F)c2)cc1
-28.6%	CCOc1ccc2nc(SCc3ccccc3C#N)sc2c1
-11.3%	CCN1C(=O)c2cccc3c(NS(=O)(=O)c4ccc(NC(C)=O)cc4)ccc1c23
u	CN(C)c1ccc(-c2nc(Nc3ccncc3)c3ccccc3n2)cc1

# Rewritten with tabs: entries from further up
SMILES	HPGD block
O=C(COc1ccc2c(-c3ccccc3)cc(=O)oc2c1)NCc1cccs1	u
CC(C)Cn1c(-c2ccc(Br)o2)n[nH]c1=S	-19.1%

# Additional compounds follow.
HPGD block	structure
-7.3%	CO/N=C/NC(=O)NOCc1c(Cl)cccc1Cl
1.2%	CCc1ccccc1N(C(=O)CCC(=O)Nc1cc(C)on1)C(C(=O)NC1CCCC1)c1ccco1 (stereo not given)
-2.1%	COc1cccc(NC(=O)c2ccc(CN3CCOCC3)cc2)c1
-4.4%	Cn1c(=O)c2c(nc(SCC(=O)NC34CC5CC(CC(C5)C3)C4)n2C)n(C)c1=O
-1.2%	CC(NC(=O)c1cc(-c2ccccc2)on1)c1ccccc1 (stereo not given)
-13.5%	CCc1ccccc1NC(=S)N1CCC(C(=O)c2ccc(F)cc2)CC1
-7.9%	O=C(NC1CCN(C(=S)NCc2ccco2)CC1)NC12CC3CC(CC(C3)C1)C2
u	NC(=O)c1c(NC(=O)c2ccccc2)sc2c1CCc1ccccc1-2
u	COc1cccc(Nc2ncc3nc(CCc4ccccc4)c(=O)n(CCC#N)c3n2)c1
-11.6%	CCOC(=O)COc1cccc2c(=O)n(CC(=O)N3CCc4ccccc43)ccc12
-20.1%	COc1ccc(/C=C2\SC(=O)N=C2N)cc1
-7.8%	NCCC[C@@H](N)C(=O)O

# Carrying on:
HPGD block	structure
-7.4%	COc1ccc(N(CC(=O)Nc2cc(Cl)ccc2OC)S(=O)(=O)c2c(C)noc2C)cc1
-4.4%	CCOC(=O)Nc1ccc(S(=O)(=O)Nc2nccc(C)n2)cc1
-4.2%	CCOC(=O)C1=C(C)NC(=O)NC1c1cccc(O)c1 (stereo not given)
-6.8%	CN1C(=S)SC(N2OC3C(=O)N(c4ccccc4)C(=O)C3C2c2ccccc2)C1(C)C (stereo not given)
-8.9%	Cc1ccc(N(C(=O)c2cccs2)C2C=CS(=O)(=O)C2)cc1 (stereo not given)
-13.0%	CC(C)COP(=O)(CNC(=O)CN1C(=O)c2ccccc2S1(=O)=O)OCC(C)C
-7.4%	Cc1cccc(C(=O)N2CCC(=O)N([C@H](COCc3cccc(C(F)(F)F)c3)Cc3ccccc3)CC2)c1
-4.6%	CCOC(=O)N1CCN(C(=O)c2cccc(OC)c2O)CC1
-7.2%	Cc1cccc(NC(=O)c2cc(NC(=O)c3ccco3)ccc2Cl)n1
-11.9%	CC12CN3CCN(CC(C3)C1(O)CN1CCOCC1)C2 (stereo not given)
-2.2%	CC1=NN(c2ccc(N)cc2)C(=O)C1
-2.1%	CCOC(=O)C1=C(C)Nc2ccccc2N=C1NC(=O)Cc1ccc(Br)cc1

# Additional structures.
HPGD block	structure
-2.6%	Cc1nnc(NC(=O)CSc2nnc(Cc3ccccc3)n2-c2ccccc2)s1
-32.8%	Cc1cccc[n+]1CC(=O)/C=C1\N(C)c2ccccc2C1(C)C
-8.4%	COCCn1c(SCC(=O)Nc2cc(Cl)ccc2OC)nc2c(c1=O)SC(C)C2 (stereo not given)
u	CN(C)/C(CN1CCN(C=O)CC1)=C1\N=C(c2ccccc2)OC1=O
u	CC(C)NC(=S)NC(=O)/C=C/c1ccc(F)cc1
u	COC(=O)c1ccccc1-c1ccc(/C=N/NC(=O)c2cc3ccccc3o2)o1
-4.7%	CCOc1ccc2nc(N)sc2c1
-8.3%	CCn1ncc(Br)c1C(=O)Nc1ccc(Cl)cn1
-0.7%	CCN1CCN(S(=O)(=O)c2ccc(S(=O)(=O)N(CC)Cc3ccccc3)cc2)CC1
-5.3%	O=c1c(-c2ccc(Cl)cc2)nc2cncnc2n1Cc1ccccc1
-19.0%	CCN(CC)CCCN1C=C2C(=O)C(C)(OC(=O)CCc3ccccc3)C(=O)C=C2C=C1c1ccc(C#N)cc1 (stereo not given)
2.7%	CC(C)c1nnc(NC(=O)CCCC(=O)O)s1

# Going on with the list.
HPGD block	structure
-3.7%	COc1cc(C2c3cc4c(cc3C(OC3OC5COC(C)O[C@@H]5C(O)C3O)C3COC(=O)C23)OCO4)cc(OC)c1O (stereo not given in full)
-4.6%	CNC1C(O)C(O[C@H]2C(O)[C@@H](OC3OC(CN)=CCC3N)[C@H](N)C[C@@H]2N)OC[C@]1(C)O (stereo not given in full)
-14.4%	Cc1nc(COC(=O)c2c(C)nn(-c3ccccc3)c2C)cs1
0.6%	CCCCN(CC)CCCNC(=S)Nc1ccc2nc3n(c(=O)c2c1)CCCCC3
-24.3%	Cc1ccc2oc(=O)c3cc(C(=O)NCCN4CCN(C)CC4)sc3c2c1
-3.3%	O=C(CN(Cc1cccs1)C(=O)c1csnn1)NC1CCCC1
-8.1%	COC(=O)c1c(Cl)c2n3ccccc3c(C)c(-c3ccccc3)c-2c1C(=O)OC
-3.4%	CCOc1ccc(NC(=O)C(=O)NCC2CCCN2CC)cc1 (stereo not given)
-1.7%	CC(=O)N1CCc2cc(S(=O)(=O)NCCCN3CCN(Cc4ccccc4)CC3)ccc21
-8.3%	O=C(CN1C(=O)c2ccccc2S1(=O)=O)NC1CC2CCC1C2 (stereo not given)
-11.0%	Cc1ccc(-c2nnc(Nc3ccccc3)o2)cc1
-15.7%	CN(C)C(=S)NCc1ccccc1

# (continued)
HPGD block	structure
-10.7%	COc1ccc(S(=O)(=O)Nc2ccc3c(c2)COC3=O)cc1OC
u	COc1c2ccoc2nc2c(OC)c(OCC(O)C(C)(C)O)ccc12 (stereo not given)
-1.9%	CCC(=O)O[C@@]1(C(=O)CCl)[C@@H](C)C[C@@H]2[C@H]3CCC4=CC(=O)C=C[C@@]4(C)[C@]3(F)[C@@H](O)C[C@@]21C
-20.3%	Cc1cc(N2CC(C(=O)NCc3cccs3)CC2=O)ccc1C(C)C (stereo not given)
-18.6%	CCCc1nc2ccc(NC(=O)c3ccco3)cc2c(=O)n1Cc1ccccc1Cl
u	CC(=O)c1sc2nc(C)cc(C)c2c1N
8.91µM*	CCCCNC(=O)c1ccccc1Cl
-1.8%	COC(=O)c1cccc(NC(=O)CCNC(=O)c2ccc([N+](=O)[O-])cc2)c1
5.3%	Oc1ccc(N2CCN(C(c3cccnc3)c3nnnn3Cc3ccccc3)CC2)cc1 (stereo not given)
-15.7%	CCOC(=O)C1=C(C)NC(=O)NC1c1ccc(OC)c(CN2CCOCC2)c1 (stereo not given)
-4.9%	COc1ccc(C(=O)CSc2nc3ccccc3n2CC(=O)c2ccccc2)cc1
-3.4%	Cc1ccccc1N1CCN(c2ccc(NC(=O)C3CCCCC3C(=O)O)cc2)CC1 (stereo not given)

# (continued)
HPGD block	structure
-7.5%	C=CCSC(=S)NC1CCS(=O)(=O)C1 (stereo not given)
-8.3%	CCCc1nnc(NC(=O)CN2CCN(C)CC2)s1
-26.4%	Cc1cc(Nc2ccc(C)c(C)c2)n2nc(C)nc2n1
-3.1%	CC(c1ccco1)N(C(=O)Nc1ccc(Cl)cc1)c1ccccn1 (stereo not given)
-8.5%	Cc1cc(C)cc(C(=O)NN2CCOCC2)c1
-8.3%	O=C(Cn1nnc(-c2ccccc2)n1)NCc1cccs1
-3.5%	CCOc1ccc(N2C(=O)CC(N3CCN(C(=O)c4ccco4)CC3)C2=O)cc1 (stereo not given)
-17.9%	CCCCc1ccc(-c2ccc(C)cc2O)nc1
-24.3%	N#Cc1ccsc1NC(=O)CN1CCN(S(=O)(=O)c2cc(Cl)ccc2Cl)CC1
-16.5%	CCOCCCNC(=O)CS(=O)(=O)Cc1nc(-c2cccc(OC)c2)oc1C
-10.9%	Cc1ccc(S(=O)(=O)NC(=O)Nc2c(C)n(C)n(-c3ccccc3)c2=O)cc1
-15.4%	O=[N+]([O-])c1ccc(S(=O)(=O)N/N=C/c2cccs2)cc1

# Sorted by count of non-hydrogen atoms (descending): some entries from above.
HPGD block	structure
-10.9%	Cc1ccc(S(=O)(=O)NC(=O)Nc2c(C)n(C)n(-c3ccccc3)c2=O)cc1
-15.4%	O=[N+]([O-])c1ccc(S(=O)(=O)N/N=C/c2cccs2)cc1
-7.5%	C=CCSC(=S)NC1CCS(=O)(=O)C1 (stereo not given)

# Remaining list, next part:
HPGD block	structure
1.6%	COc1ccc2c(c1)[nH]c1c(=O)n(CCN3CCCC3)cnc12
-4.9%	CCOC(=O)C1=C(C)NC(=O)C(C(N)=O)C1c1ccccc1 (stereo not given)
-14.9%	CC1(C)NC(=O)N(CCCOc2ccc3c(c2)CCC3)C1=O
u	S=c1[nH]nc(-c2cc3c(s2)-c2ccccc2CC3)o1
-13.0%	COc1ccc(OC)c(NC(=O)CNC(=O)Cn2c(C)cc3ccccc3c2=O)c1
-15.0%	Cc1cc(N2CCCCC2)nc(NCc2ccccc2)n1
-1.8%	Cc1ccc(NC(=O)N2CCC(C(N)=O)CC2)cc1
-8.1%	O=C(Nc1ccccc1Oc1ccccc1)C1CCCC1
4.5%	C=CCc1ccccc1OCCNCCCOC
-0.3%	C=C1C(=O)O[C@H]2C1CC[C@@](C)(O)C13C=CC(C)(C21)C1(C3)C(=O)O[C@@H]2C3C(C)=CCC3[C@](C)(O)C[C@H](OC(C)=O)C21 (stereo not given in full)
-7.7%	CCc1nc(NCc2ccccn2)c2oc3ccccc3c2n1

# Only part of the results is shown (hit frequency here may not be typical).
